# TRPV1 PAM = potentiators of human vanilloid receptor 1 (TRPV1). potentiation, % at 8.33 µM. Q8NER1. TRPV1-expressing cells, Fluo-8 calcium influx, capsaicin EC20 potentiation; host cell line not named in the record; control for the full effect not named in the record. 320,000 tested, 0.02% active. AID 540277; active means potentiation above 80%; inconclusive means 30% to 80%; inactive means below 30%; also: 0% is about no effect
#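 TRPV1-expressing cells were cultured overnight at 35.5C and loaded with Fluo-8 calcium dye for 40 to 90 min at room temperature. After a 10 s baseline, compound was added and calcium influx was read kinetically for 3 min (ex 480/em 520 nm).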
# ClpP mod = qHTS Assay for Activators of ClpP; purified B. subtilis ClpP, FRET peptide cleavage, 20 min; Potency, µM (series often up to 57.5 µM), for the others: at the top dose activity change, negative = active; 340,000 tested, 1.9% active; active = well fitted falling curve with a large enough effect; inconclusive = small, poorly fitted or top-dose-only effect; inactive = no such curve, though single readings can be large or run the other way; also: potency is read from the fitted curve at half-maximal effect; the source files actives as falling curves though it sought activators and does not explain the sign; nearly all actives have a fitted effect of over 65% in size; many hits overshoot -100%
# Target sequence (P80244 whole entry, looked up): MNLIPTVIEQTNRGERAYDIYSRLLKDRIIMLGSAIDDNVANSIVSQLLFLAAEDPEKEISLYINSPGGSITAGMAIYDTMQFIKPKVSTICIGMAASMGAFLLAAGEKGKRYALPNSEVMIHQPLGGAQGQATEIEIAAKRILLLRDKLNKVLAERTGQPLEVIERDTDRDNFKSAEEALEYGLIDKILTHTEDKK
#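 ClpP 10 microg/mL final, pH 8 Tris/KCl buffer with BSA, glycerol, Tween-20; compound pinned in; FRET-FV substrate; RT 20 min; Ex320/Em430; ΔFRET vs ADEP 5.8 microM, DMSO, no enzyme.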
# gsp agonist = gsp mutant agonism; gsp mutant cells, cAMP HTRF, 30 min; control for the full effect not named in the record; Potency, µM (top dose mostly 76.9 µM), inactives show at the highest dose activation (cAMP increase), hits mostly activators; 340,000 tested, 0.13% active; active = well fitted activation curve with a large enough effect; inconclusive = small, poorly fitted or top-dose-only effect, or another doubt; inactive = no such curve, though single readings can be large or run the other way; cell line not stated here;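 also: phosphodiesterase inhibitor Ro 20-1724 added with compounds to block cAMP breakdown; potency is read from the fitted curve at half-maximal effect; nearly all actives have a fitted effect of over 60% in size; about a fifth of the inactives were tested at one dose only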
#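 Cells stably selected in G418 were plated at 2000/well, grown 16-24 hr, then given compounds in DMSO with the PDE inhibitor […] (300 uM solution added) for 30 min at 37C; cAMP was read by HTRF.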
# Sfp PPTase inh = Sfp phosphopantetheinyl transferase inhibition; 310,000 tested, 3.5% active; Q9F4F7; Biochemical Sfp PPTase activity, qHTS; Potency, µM, for inactives: max response, negative = inhibition, most hits filed as inhibitors; active = well fitted inhibition curve with a large enough effect; inconclusive = small, poorly fitted or top-dose-only effect, or another doubt; inactive = no such curve, though single readings can be large or run the other way;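 also: the enzyme is Sfp with the accession as filed and its product quenches rhodamine fluorescence; potency is read from the fitted curve at half-maximal effect; 0% = enzyme reaction without inhibitor and -100% = no enzyme wells; top concentration of the series not given in the record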
#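 Fluorescence-quenching assay: 15 nM Sfp-PPTase preincubated 15 min at room temperature with compound, then 5 uM rhodamine-CoA and 12.5 uM BHQ-2-labelled YbbR peptide added. Fluorescence (ex 525/em 598 nm) read at start and after 30 min; difference gives rate.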
# TRPML1 inh = human mucolipin-1 channel inhibition; activity change, negative = inhibition, % (no concentration beside the values); TRPML1-inducible cells, Ca2+ dye fluorescence, FDSS; stronger effect = lower value; inhibition of EC80 agonist-evoked calcium signal; Q9GZU1; 390,000 tested, 0.02% active; in the data active means activity change below about -50%; inconclusive means about -30% to -50%; inactive means above about -30%;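 also: stimulus is agonist 54-4 at its EC80 concentration; % is scaled to controls: 0 for no effect and ±100 for the full control effect; compound concentration not given in the record; the text of the record puts the active cut at -80%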
# Target sequence (Q9GZU1 whole entry, looked up): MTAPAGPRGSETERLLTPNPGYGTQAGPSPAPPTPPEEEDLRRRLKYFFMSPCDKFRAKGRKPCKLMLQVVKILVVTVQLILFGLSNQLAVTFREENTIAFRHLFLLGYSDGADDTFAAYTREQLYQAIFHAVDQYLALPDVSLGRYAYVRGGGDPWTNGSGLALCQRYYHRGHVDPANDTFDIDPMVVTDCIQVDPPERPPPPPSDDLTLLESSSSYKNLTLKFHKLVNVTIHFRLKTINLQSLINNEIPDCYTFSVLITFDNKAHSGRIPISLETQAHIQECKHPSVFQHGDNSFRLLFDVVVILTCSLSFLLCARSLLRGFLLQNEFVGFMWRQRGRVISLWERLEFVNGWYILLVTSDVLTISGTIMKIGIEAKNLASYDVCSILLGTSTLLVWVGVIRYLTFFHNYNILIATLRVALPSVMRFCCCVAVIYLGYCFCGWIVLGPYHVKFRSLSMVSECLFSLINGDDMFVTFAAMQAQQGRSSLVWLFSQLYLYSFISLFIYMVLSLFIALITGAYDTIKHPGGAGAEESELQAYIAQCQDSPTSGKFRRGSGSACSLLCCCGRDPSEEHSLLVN
#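 Tet-induced TRPML1-DL cells loaded with Ca8 no-wash calcium dye were read kinetically on FDSS. Compound addition was followed by EC80 agonist 54-4 (4 uM final); inhibition was read over 110 s.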
# gsp antagonist = antagonizes gsp, the McCune-Albright syndrome mutation; 340,000 tested, 0.4% active; gsp-mutant cells, cAMP HTRF, 30 min; control for the full effect not named in the record; Potency, µM (doses to about 76.9 µM), for inactives: top-dose activity change, negative = inhibition, usual class: inhibitors; active = falling curve of any shape with a large fitted effect; inconclusive = falling curve, mostly with a smaller effect; inactive = flat or rising curve; cell line not stated here;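 also: intracellular cAMP measured with PDE inhibitor Ro 20-1724 present during compound exposure; potency is read from the fitted curve at half-maximal effect; % is scaled to controls: 0 for no effect and ±100 for the full control effect; nearly all actives have a fitted effect of over 65% in size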
#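 Cells, 2000/well, grown 16–24 h in DMEM 10% FBS with 0.5 mg/ml G418, then compounds plus […] (300 uM addition stock), 30 min at 37C. cAMP read by HTRF (cAMP-d2 and anti-cAMP antibody-K in lysis buffer) after 30 min RT.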
# Menin MLL FP FL = inhibitors of human menin-MLL interaction, wild-type MLL peptide; FP activity change, % at 61.4 µM; 290,000 tested, under 10 active; Fluorescence polarization, fluorescein-MLL peptide displacement from menin; inconclusive = falling polarisation curve, or a change in total fluorescence; inactive = total fluorescence flat and polarisation flat or rising; no compound was filed as active; the % refers to the polarisation; negative = inhibition;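 also: % of control where 0% means no effect; inhibitors lower the polarisation; unlabelled MLL peptide was the positive control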
# An asterisk follows results filed as active; ? = inconclusive; . = no result given; & = joins results of further samples; [ ] = another dose, or the depositor's remark.
SMILES,TRPV1 PAM,ClpP mod,gsp agonist,Sfp PPTase inh,TRPML1 inh,gsp antagonist,Menin MLL FP FL
CC(C)[C@H](NC(N)=O)C(=O)NNC(=O)COc1cccc(C(F)(F)F)c1,4,-1.4%,-8%,6%,-5,8%,6.0
CN(c1ccc(C(=O)Nc2ccc3c(c2)n(C)c(=O)n3C)cc1)S(C)(=O)=O,-9,25µM*,14%[15.4 µM],11%,13,3%,6.1
COc1ccc(C2C3C=CCC(c4cccc(/C=C/c5ccccc5)c4)C3C(=O)N2Cc2ccccc2)cc1Cl (centres undefined),.,.,.,-6%,-2,.,9.2
Cc1ccc(C(=O)N/C(=C\c2cccnc2)c2nc3ccccc3[nH]2)cc1,-24,?,5%,12%,-12,3%,-6.3
Cc1ccc(NC(=O)c2cc(S(=O)(=O)N3CCOCC3)ccc2F)c(C)c1,?,0.3%,1%,0%,-16,-7%,2.3
CCCCn1c(N)c(N(CCOC)C(=O)CSc2nnc(-c3ccncc3)n2CCC)c(=O)[nH]c1=O,7,.,-9%[15.4 µM],.,21,0%,.
O=C(NCCN1CCOCC1)c1ccc(NC(=O)C2COc3ccccc3O2)cc1 (centres undefined),6,.,?,15%,12,6%,-6.0
CCN(CC(=O)Nc1c(F)cccc1F)C(=O)c1ccc2c(c1)S(=O)(=O)N=C1CCCCCN12,-19,-1.6%,15%[15.4 µM],.,1,4%,.
COC(=O)CCCn1c(C)cc(C(=O)CCl)c1C,-1,1.9%,-2%[15.4 µM],24%,1,-4%,0.2
Cc1ccccc1CN1CCN(c2ccc(S(=O)(=O)N3CCCC3)cn2)CC1,1,2.3%,6%,.,23,7%,.
Fc1ccc(C2c3[nH]c4ccccc4c3CCN2Cc2ccoc2)cc1 (centres undefined),-1,.,-21%,9%,8,1%,0.0
COc1ccc(C(=O)N/N=C2\CCS(=O)(=O)c3ccc(F)cc32)cc1OC,5,-0.5%,15%,16%,13,19%,0.3
Cc1ccc(CSc2nnc(CC(=O)Nc3ccc(C)cc3)n2C)cc1,3,0.1%,3%,-3%,-4,1%,1.2
Cc1cc(Cl)nc(-n2nc(C)cc2C)n1,4,1.5%,-6%[15.4 µM],2%,80,2%,-1.4
CCOC(=O)c1[nH]c(=O)c2ccccc2c1O,9,-28%,3%,6%,5,14%,0.5
COc1ccc(OCC(=O)N2CCc3c([nH]c4ccccc34)C2c2ccccn2)cc1 (centres undefined),5,0.5%,-27%,4%,3,-6%,1.1
COc1ccc(CNC(=O)CCn2c(C)csc2=O)cc1,-4,0.0%,-38%[inhibitor],.,-8,-9%,.
CN(CC(=O)Nc1ccccc1Cl)C(=O)C1CSC2(C)CCC(=O)N12 (centres undefined),1,0.7%,6%,.,-13,5%,.
Cc1cc(N2CCN(c3ccccc3F)CC2)nc2cc(O)ccc12,-58,-2.8%,20%[15.4 µM],5%,1,2%,3.0
CCOc1ccc(N(CC(=O)Nc2ccc(OC)cc2)C2=NC3CS(=O)(=O)CC3S2)cc1 (centres undefined),?,2.0%,-51%,0%,5,2%,-2.0
C=CCC(NCc1ccccc1)c1ccc(Cl)cc1 (centres undefined),-41,-1.5%,0%,1%,22,-2%,3.6
O=C(CSc1nncs1)NC(=O)Nc1ccc2c(c1)OCCO2,10,1.2%,38%,20%,49,-13%,5.1
Cc1ccc(S(=O)(=O)c2cn(C)c3cc(N4CCOCC4)c(F)cc3c2=O)cc1,2,-23%,?,8%,2,8%,.
O=C(COc1coc(CN2CCc3ccccc32)cc1=O)Nc1cccc(F)c1,10,2.4%,-2%,.,-2,-16%,.
CCOC(=O)C(=O)Cc1nc(OCc2ccccc2)cc(OCc2ccccc2)n1,.,.,?,.,27,-12%,.
Cc1ccc(C)c(C(=O)COC(=O)CCCC(=O)Nc2cc(C(F)(F)F)ccc2Cl)c1,1,1.1%&-0.2%,13%,6%,15&23,-19%,5.6
CC(NC(=O)c1ccc(F)cc1)C(c1cccs1)N1CCN(C)CC1 (centres undefined),-1,-2.1%,11%,-1%,-17,5%,2.3
O=C(NCc1ccc2c(c1)OCO2)C1CCC(CNS(=O)(=O)c2ccccc2)CC1 (centres undefined),-2,-0.5%,22%,-2%,24,5%,-0.9
CCOc1ccc(NC(=O)c2ccc3c(c2)S(=O)(=O)N=C2CCCCCN23)cc1,.,111%,?,.,-1,.,.
CCCCN(C(=O)CSc1c(C)c(C)cc(C)c1C)c1c(N)n(CCC)c(=O)[nH]c1=O,1,0.7%,18%,.,-4,-10%,.
COCCCN1C(=O)C(CC(=O)NCCc2ccccn2)CC(C(=O)N2CCOCC2)=C1C (centres undefined),.,0.4%,1%,.,-4,.,.
COc1ccc(/C=N/NC(=O)c2cccs2)c2ccccc12,.,-1.0%,2%[15.4 µM],.,26,-11%,.
CCN(CC(=O)Nc1cc(Cl)ccc1C)C(=O)c1nc2nc(C)cc(C)n2n1,-3,2.2%,21%,.,4,8%,.
CCOC(=O)CC(NC(=O)c1ccco1)c1ccc(OC)cc1 (centres undefined),13,1.3%,9%,13%,-12,15%,-0.6
COC(=O)c1c(NC(=O)c2c(OC)cccc2OC)sc2c1C(C(=O)OC)CC2 (centres undefined),-11,-17%,12%,-4%,4,-16%,2.6
COc1cc(/C=C/C(=O)OCC(=O)Nc2ccc(Cl)cn2)ccc1O,-15,-5.6%,-19%,.,-1,-4%,.

# 5 of the entries above in order of the gsp agonist value, lowest first:
structure | gsp agonist
COc1cc(/C=C/C(=O)OCC(=O)Nc2ccc(Cl)cn2)ccc1O | -19%
CCOC(=O)CC(NC(=O)c1ccco1)c1ccc(OC)cc1 (centres undefined) | 9%
CC(NC(=O)c1ccc(F)cc1)C(c1cccs1)N1CCN(C)CC1 (centres undefined) | 11%
COC(=O)c1c(NC(=O)c2c(OC)cccc2OC)sc2c1C(C(=O)OC)CC2 (centres undefined) | 12%
CCN(CC(=O)Nc1cc(Cl)ccc1C)C(=O)c1nc2nc(C)cc(C)n2n1 | 21%

# Continuation:
SMILES,TRPV1 PAM,ClpP mod,gsp agonist,Sfp PPTase inh,TRPML1 inh,gsp antagonist,Menin MLL FP FL
C[C@@H]1CN(C2CCN(Cc3nc(CC4CC4)no3)CC2)C[C@H](C)O1,-4,.,-5%,18%,12,6%,3.6
COc1cc(NC(=O)COc2cc(C)cc3oc(=O)cc(C)c23)cc(OC)c1OC,.,-28%,-133%[inhibitor],.,-6,.,.
O=C(NC1CCCCCC1)C1CCCN(S(=O)(=O)c2cnc[nH]2)C1 (centres undefined),3,1.6%,-2%,-6%,-12,6%,-0.5
CC1CCN(c2ccc3nnc(CCC(=O)Nc4cc(F)ccc4F)n3n2)CC1,1,-3.0%,?,11%,4,9%,0.9
O=C(c1cc(-c2ccc(Br)cc2)on1)N1CCc2ccccc2C1,-3,-1.6%,0%[15.4 µM],11%,8,6%,-18
COc1cc(/C=C2\C(=N)N3N=C(S(=O)(=O)CC(C)C)SC3=NC2=O)ccc1OC(=O)c1ccco1,12,.,.,-5%,.,.,?
N=c1sccn1CC(=O)Nc1cc(Cl)ccc1Oc1ccccc1,-12,-1.1%,-20%,?,?,-1%,7.3
Cc1cc(C)n2nc(SCC3COc4ccccc4O3)nc2n1 (centres undefined),?,-2.1%,-49%,0%,-6,4%,3.5
O=C(NNC(=O)C12CC3CC(CC(Br)(C3)C1)C2)c1ccccc1F,.,-0.5%,?,.,-16,-1%,.
CCOC(=O)c1[nH]c2ccc(C(=O)OC)cc2c1C(=O)OCC,-3,3.9%,-9%,8%,13,10%,-3.7
CCCCc1c(O)nc(SCC(=O)N2CCCCC2)[nH]c1=O,?,-0.2%,-1%[15.4 µM],1%,4,9%,3.3
Cc1sc(NC(=O)C2CCCO2)c(C(N)=O)c1C (centres undefined),2,-8.0%,-5%,-13%,-15,3%,4.8

# Reformatted with tabs: 4 of the compounds above.
structure	TRPV1 PAM	ClpP mod	gsp agonist	Sfp PPTase inh	TRPML1 inh	gsp antagonist	Menin MLL FP FL
O=C(NNC(=O)C12CC3CC(CC(Br)(C3)C1)C2)c1ccccc1F	.	-0.5%	?	.	-16	-1%	.
N=c1sccn1CC(=O)Nc1cc(Cl)ccc1Oc1ccccc1	-12	-1.1%	-20%	?	?	-1%	7.3
COc1cc(/C=C2\C(=N)N3N=C(S(=O)(=O)CC(C)C)SC3=NC2=O)ccc1OC(=O)c1ccco1	12	.	.	-5%	.	.	?
CC1CCN(c2ccc3nnc(CCC(=O)Nc4cc(F)ccc4F)n3n2)CC1	1	-3.0%	?	11%	4	9%	0.9

# Carrying on:
SMILES,TRPV1 PAM,ClpP mod,gsp agonist,Sfp PPTase inh,TRPML1 inh,gsp antagonist,Menin MLL FP FL
Cc1ccc(S(=O)(=O)Nc2c(C(=O)O)[nH]c3ccccc23)c(C)c1,7,0.7%,2%,18%,4,-3%,-1.4
COc1cc(/C=C2/C(=N)N3C(=NC2=O)SN=C3S(C)(=O)=O)ccc1OS(=O)(=O)c1ccc(C)cc1,2,-6.9%,?,-12%,2,?,11
COc1ccccc1OCC(=O)Nc1ccc(S(=O)(=O)Nc2onc(C)c2C)cc1,7,.,?,14%,-10,-9%,1.0
Cc1cccc(C(=O)Oc2ccc(/C=N/NC(=O)c3cc(O)cc(O)c3)cc2)c1,1,1.0%,11%[15.4 µM],-25%,-2,-1%,-2.9
C(=C\c1nc(N2CCCC2)c2ccccc2n1)/c1ccccc1,-1,0.6%,-21%[15.4 µM],-28%,32,?,-1.2
O=C(NC1CCCCCC1)c1ccc([N+](=O)[O-])s1,-17,.,-3%[15.4 µM],.,-5,7%,.
CCC1NC(=O)c2cc3ccccc3cc2-n2c1nc1ccc(OC)cc1c2=O (centres undefined),.,-3.1%,-41%[inhibitor],.,8,.,.
COc1ccc(NS(=O)(=O)c2c(C(=O)N3CCCCCC3)c(C)n(C)c2C)cc1,-16,-1.3%,?,12%,16,-1%,0.4

# Screens as filed in PubChem.

# The order is random, and some 4.9% of all compounds hit somewhere here.
